# Compound activity (PubChem BioAssay)
# HPGD inh – HPGD (human) dehydrogenase inhibition; P15428; purified HPGD, NADH fluorescence kinetic, PGE2 substrate; Potency, µM, for inactives: top-dose activity change, negative = inhibition, most hits filed as inhibitors; hit rate 4.3% among 150,000; active = well fitted inhibition curve with a large enough effect (not every such curve was filed as active); inconclusive = small, poorly fitted or top-dose-only effect, or another doubt; inactive = no such curve, though single readings can be large or run the other way;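 further: top concentration of the series not given in the record; plate controls included wells without enzyme; inactives centre near -10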
# Target sequence (P15428 whole entry, looked up): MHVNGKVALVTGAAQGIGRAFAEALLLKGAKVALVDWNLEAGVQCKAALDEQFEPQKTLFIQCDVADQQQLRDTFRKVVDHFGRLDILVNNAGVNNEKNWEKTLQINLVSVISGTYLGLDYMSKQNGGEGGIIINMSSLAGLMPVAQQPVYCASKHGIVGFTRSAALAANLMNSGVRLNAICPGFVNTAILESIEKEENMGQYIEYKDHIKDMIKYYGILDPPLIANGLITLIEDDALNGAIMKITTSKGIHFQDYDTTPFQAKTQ
#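 NADH formation kinetics: reaction with 30 uM PGE2 and 1 mM NAD+ (final), 20 nM enzyme, Tris-HCl pH 8 with Tween 20, after 15 min compound preincubation at room temperature. Fluorescence change, last versus first of five reads.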
# Starred values were filed as active, the others as inactive; u = inconclusive. On the % scale 0 is the no-effect control and ±100 the full control effect; potency means the concentration at half of the fitted maximal effect. Not all compounds are listed; rates above refer to the full screens.
SMILES,HPGD inh
COc1ccc(-c2nc3n(n2)C(=O)CC(c2ccco2)S3)cc1 (stereo not drawn),u
C[C@@]1([C@@H](NC(=O)c2cccs2)c2ccc(-c3ccccc3)cc2)C[C@H]1C1CCCCC1,-4%
COc1cccc(NC(=O)CSc2nnc(Cc3cccs3)n2-c2ccc(C)cc2)c1,-15%
Cc1occc1-c1nnc(SCC(=O)c2c[nH]c3ccccc23)n1C,-9%
O=C(Nc1ccc(CN2CCOCC2)cc1)c1ccccc1F,-19%
O=C(Nc1ccc(S(=O)(=O)NC2CCCCC2)cc1)c1ccco1,13µM*
COc1ccccc1CNC(=O)C(=O)NCC1CCCO1 (stereo not drawn),-9%
O=C1N/C(=N\N=C\c2cccs2)SC1Cc1ccc(Cl)cc1Cl (stereo not drawn),-8%
Cc1cc(NC(=O)CSc2c(C)[nH]c3ccccc23)no1,-5%
CCSc1cc(N2CCOCC2)nc(-c2ccccc2)n1,-7%
Brc1cc2c(cc1/C=N/Nc1nc(N3CCOCC3)nc(N3CCOCC3)n1)OCO2,-15%
CCOC(=O)c1ccc(NC(=O)C2(c3ccc(Cl)cc3)CCCC2)cc1,-2%
CC(=O)Nc1cc(C(=O)N2CCc3ccccc3C2)ccc1Sc1ccc(F)cc1,-16%
Cn1c(=O)c2[nH]c(NCCCN3CCOCC3)nc2n(C)c1=O,-18%
CCOC(=O)C1=NNC2C(=O)N(C3CCCCC3)C(=O)C12 (stereo not drawn),-5%
Cc1ccc(NC(=S)N2CCN(C)CC2)c(C)c1,2%
Cc1ccc(N2C(=O)Nc3ccc(Br)cc3C2(O)C(=O)NCCCN(C)C)cc1C (stereo not drawn),-13%
O=C(NC1CCCCCCC1)C1CCN(S(=O)(=O)N2CCCC2)CC1,-6%
Cc1c(Cl)cccc1N1C(=O)c2ccccc2C1=O,-7%
Cc1cccc(-n2cc(-c3ccc([N+](=O)[O-])cc3)[nH]c2=S)c1,-17%
CCOC(=O)Cn1cncc1-c1ccc([N+](=O)[O-])cc1,-16%
COc1ccc(OC)c(S(=O)(=O)Nc2ccc(F)cc2)c1,-13%
Cc1nc2cncc(Br)c2n1C,-9%
CCOC(=O)N1CCN(c2c(NCCOC)c(=O)c2=O)CC1,-15%
O=S(=O)(Nc1ncccn1)c1ccc(Nc2ncnc3ccccc23)cc1,-9%
CC(C)Oc1ccc(C(=O)NCc2ccco2)cc1,18µM*
CC(C)(C)n1[nH]c2c3c(ccc2c1=O)C(=O)c1ccccc1C3=O,-8%
O=C(/C=C/c1ccc(O)c(O)c1)O[C@H]1C[C@@](O)(C(=O)O)CC(O)C1O (stereo partly drawn),4%
CCCCNC(=O)CSc1nc2ccccc2c(=O)n1Cc1ccc2c(c1)OCO2,-11%
CC(Sc1nc(-c2ccccc2)cc(C(F)(F)F)n1)C(=O)NCc1ccco1 (stereo not drawn),-11%

# An excerpt of these results, with each value named:
Molecule: O=S(=O)(Nc1ncccn1)c1ccc(Nc2ncnc3ccccc23)cc1
  HPGD inh: -9%

Molecule: CC(C)Oc1ccc(C(=O)NCc2ccco2)cc1
  HPGD inh: 18µM*

Molecule: CC(C)(C)n1[nH]c2c3c(ccc2c1=O)C(=O)c1ccccc1C3=O
  HPGD inh: -8%

Molecule: O=C(/C=C/c1ccc(O)c(O)c1)O[C@H]1C[C@@](O)(C(=O)O)CC(O)C1O (stereo partly drawn)
  HPGD inh: 4%

# Of the compounds above, 6 contain four or more nitrogen atoms.
SMILES,HPGD inh
COc1cccc(NC(=O)CSc2nnc(Cc3cccs3)n2-c2ccc(C)cc2)c1,-15%
Cc1occc1-c1nnc(SCC(=O)c2c[nH]c3ccccc23)n1C,-9%
Brc1cc2c(cc1/C=N/Nc1nc(N3CCOCC3)nc(N3CCOCC3)n1)OCO2,-15%
Cn1c(=O)c2[nH]c(NCCCN3CCOCC3)nc2n(C)c1=O,-18%
Cc1ccc(N2C(=O)Nc3ccc(Br)cc3C2(O)C(=O)NCCCN(C)C)cc1C (stereo not drawn),-13%
O=S(=O)(Nc1ncccn1)c1ccc(Nc2ncnc3ccccc23)cc1,-9%

# (cont.)
SMILES,HPGD inh
C=CCn1c(=N)n(CC(O)COc2ccccc2OC)c2ccccc21 (stereo not drawn),1%
CCCCC(=O)Nc1sc2c(c1C#N)CC(C)(C)OC2,-10%
Cc1ccc(NC(=O)CSc2nc3ccccc3c(=O)n2CCCN2CCCCC2)cc1C,-1%
CCn1nc(C(=O)OC2CCOC2=O)c2ccccc2c1=O (stereo not drawn),-13%
O=c1c(O)c(-c2ccc(O)cc2)oc2cc(O)ccc12,u
COC(=O)[C@H]1C[C@@H]1[C@H](NC(C)=O)c1ccccc1,-4%
CC1CN(C(=O)c2cn3ccccc3n2)CC(C)O1 (stereo not drawn),-8%
CC(C)(C)SCCNC(=O)/C=C/c1ccc(F)cc1,-2%
Cc1ccccc1NS(=O)(=O)c1cc(C(=O)Nc2cccc(N(C)S(C)(=O)=O)c2)ccc1C,-21%
CN(C)S(=O)(=O)c1cccc(C(=O)NCc2cccs2)c1,-4%
O=[N+]([O-])c1ccc(/C=N/n2c(CO)nc3ccccc32)s1,-8%
COC(=O)NCC12CC3CC(C1)CC(CNC(=O)OC)(C3)C2,-11%
NC(=O)CC[C@@H]1NC(=O)C(Cc2ccc(O)cc2)NC(=O)c2cc([N+](=O)[O-])cc(F)c2NCCC[C@@H](C(N)=O)NC1=O (stereo partly drawn),-8%
CC1CCN(S(=O)(=O)c2cccc(C(=O)O)c2)CC1,-3%
CCOc1ccc2nc(NC(NC(C)=O)(C(=O)OC)C(F)(F)F)sc2c1 (stereo not drawn),-5%

# Arranged by molecular weight (rising): 3 of the compounds above.
SMILES,HPGD inh
CC(C)(C)SCCNC(=O)/C=C/c1ccc(F)cc1,-2%
CCn1nc(C(=O)OC2CCOC2=O)c2ccccc2c1=O (stereo not drawn),-13%
C=CCn1c(=N)n(CC(O)COc2ccccc2OC)c2ccccc21 (stereo not drawn),1%

# Going on with the list.
SMILES,HPGD inh
C/C(=N\NC(=O)c1c(Cl)c(C)nn1C)c1ccc(NC(=O)c2ccncc2)cc1,u
CCOc1ccccc1C=Nc1ccccc1C(=O)Nc1ccccc1,u
CC1CCCCN1S(=O)(=O)c1ccc(NC(=O)c2ccco2)cc1 (stereo not drawn),-10%
O=C(N[C@@H](Cc1ccccc1)C(=O)O)c1ccccc1,1%
CCOC(=O)N/N=C/c1cccc(Cl)c1Cl,-18%
CCOC(=O)c1sc2ncn(/N=C/N(C)C)c(=O)c2c1C,-12%
COc1ccc(N2C(=O)C3C4C=CC(CC4)C3C2=O)c([N+](=O)[O-])c1 (stereo not drawn),-20%
O=C(c1ccc2c(c1)OCO2)N1CCN=C1SCc1cccnc1,-15%
O=C(Cn1cnc2c(cnn2-c2ccc(F)cc2)c1=O)N1CCN(c2ccccc2F)CC1,-12%
O=S(=O)(NCC1CCCO1)c1cccc2nsnc12 (stereo not drawn),-12%
Cc1c(Cl)cccc1NC(=O)CCC(=O)NNC(=O)c1ccccc1Cl,-5%
Cc1ccc2c(=O)cc(C(F)F)oc2c1,u
CCOC(=O)c1cc(CC)sc1/N=C/C1C(=O)CC(C)(C)CC1=O,-4%
CCCC(C(=O)NCC1CCCO1)N(Cc1ccco1)C(=O)CNS(=O)(=O)c1ccccc1 (stereo not drawn),-1%
O=C(NCc1ccco1)c1cc2c(s1)CSC2,u
CC(=O)Nc1ccc(NC2=CC(=O)CC(C)(C)C2)cc1,-13%
CCOC(=O)c1ccc(NC(=O)CCn2nnc3ccccc32)cc1,-4%
CC12CN(S(=O)(=O)c3ccccc3)CC(C)(CN(S(=O)(=O)c3ccccc3)C1)C2,-12%
O=C(c1ccco1)N1CCN(S(=O)(=O)c2cccc3nsnc23)CC1,-8%
COc1cc(/C=N/NC(=O)CCc2ccccc2)ccc1O,u
O=C(CCN1C(=O)c2ccccc2C1=O)Nc1ccc(S(=O)(=O)N2CCOCC2)cc1,-10%
Cc1csc(NC(=O)CSc2nnc(Cn3c(=O)sc4ccccc43)n2-c2ccccc2)n1,-22%
COc1ccc2cc(CCNC(=O)c3ccc4c(c3)OCO4)c(=O)[nH]c2c1,-17%
C=CCN(c1cccc(C(F)(F)F)c1)S(=O)(=O)c1cccc(C(=O)OCC(=O)NC(N)=O)c1,-5%
COCCn1c(=O)c(CCc2ccccc2)nc2cnc(OC)nc21,-4%
CC(=O)c1c(C(C)=O)c(C)n(NC(=O)c2ccccc2Cl)c1C,u
N#CC1=C(N)NC(SCC(=O)Nc2ccc(Br)cc2)=C(C#N)C12CCCCC2,-11%
CCCC[C@@H]1C[C@H]1C(NC(=O)Cc1ccccc1)c1ccc(-c2ccccc2)cc1 (stereo partly drawn),-12%
CCc1ccccc1OCCCOc1ccc(OC)cc1,u
COc1ccc(CN(C(=O)c2cnccn2)C(C(=O)Nc2ccc(F)cc2)c2ccccc2)cc1 (stereo not drawn),-9%

# Random excerpt: three records from the list, in no set order.
SMILES,HPGD inh
COc1cc(/C=N/NC(=O)CCc2ccccc2)ccc1O,u
C=CCN(c1cccc(C(F)(F)F)c1)S(=O)(=O)c1cccc(C(=O)OCC(=O)NC(N)=O)c1,-5%
CCCC[C@@H]1C[C@H]1C(NC(=O)Cc1ccccc1)c1ccc(-c2ccccc2)cc1 (stereo partly drawn),-12%

# Other entries follow:
SMILES,HPGD inh
CC(C(=O)Oc1ccc2c(c1)OCO2)N1C(=O)c2ccccc2C1=O (stereo not drawn),-13%
COc1ccc(CC(=O)Nc2c3c(nn2-c2cccc(Cl)c2)CS(=O)C3)cc1 (stereo not drawn),-12%
C[N+]1(CCCC[N+]2(C)CCCCCCC2)CCCCCCC1,0%
COC(=O)[C@@]1(Cc2ccc(OC)cc2)[C@H]2c3cc(C(=O)N4CCCC4)n(CCc4ccc(O)c(OC)c4)c3C[C@H]2CN1C(=O)c1ccccc1,-5%
COc1ccc(-c2csc(Cc3nnc(N4CCOCC4)n3-c3ccccc3)n2)cc1,-2%
COc1cccc(CNc2ccc(N3CCC(C)CC3)cc2)c1OC,-6%
COc1ccc(OC)c(C2C3=C(COC3=O)Nc3cc4c(cc32)OCO4)c1 (stereo not drawn),u
C=CCSc1nccc(-c2cc(Cl)sc2Cl)n1,-11%
O=S(=O)(NC1CCCCC1Sc1ncccn1)c1ccc(Cl)cc1 (stereo not drawn),-7%
Cc1ccccc1C(=O)Nc1nc(=S)ss1,14µM*
COc1ccc(C(=O)Nc2cc(OCc3ccccc3)c(Cl)cc2Cl)cc1,-10%
Cn1c(C(=O)NCCN2CCN(c3ccccc3F)CC2)cc2c(=O)n(C)c3ccccc3c21,-27%
Cc1ccc2nc(NC(=O)Cc3cccs3)sc2c1,-21%
CCOC(=O)c1sc(NC(=O)CSc2nnnn2-c2ccc(C)cc2)c(C(=O)OCC)c1C,-9%
CC1(C)C2CCC1(CS(=O)(=O)NCc1ccc(C(=O)O)cc1)C(=O)C2 (stereo not drawn),1%
CC/C=C/C#N,-8%
CCNC(=O)NC1(C(=O)Nc2ccc3c(c2)OCCO3)CCCCC1,-18%
O=C(O)C1CC(=O)N(CCOc2ccccc2)C1 (stereo not drawn),-3%
CC1(C)C(=O)OC(c2ccccc2)C2(CCCC2)C1=O (stereo not drawn),-6%
CCOC(=O)C1=NN(c2ccccc2C)C2=NC(C)=C(C(=O)OC)C(c3cccc(OC)c3)N12 (stereo not drawn),-12%
COC(=O)CN(c1ccc(C(C)C)cc1)S(=O)(=O)c1c(C)[nH]c(=O)[nH]c1=O,3%
C=CCn1c(=NC(=O)CC)n(C)c2ccccc21,-7%
CCCOC(=O)c1ccc(Oc2coc3c(CN(CC)CC)c(O)ccc3c2=O)cc1,u
Cc1cccc(C(=O)Nc2ccc(O)cc2)c1,-12%
COc1ccc(NC(=O)CCCN2C(=O)/C(=C\c3ccco3)SC2=S)cc1,-19%
COc1ccc(Nc2nc(N3CCCC3)nc3ccccc23)c(OC)c1,-24%
CCN(CC)C(=O)C1CCCN(Cc2ccccc2C(F)(F)F)C1 (stereo not drawn),-13%
Cc1ccc(-c2cc(C(=O)N/N=C\c3cnn(C)c3C)c3ccccc3n2)cc1C,-11%
